Source: PubChem BioAssay (Broad Institute)
Vaccinia inh – blocks a specific stage of Vaccinia orthopoxvirus infection; Vaccinia-infected cells, mCherry/Venus stage reporter fluorescence; hits give low values; some inactives read as strong as hits; activity change (mCherry), % (concentration not given with the values); 89,000 compounds, 0.01% hits; AID 1053133;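 active = mCherry past -33% and 40 or more points under the early reporter, replicates agreeing; inconclusive = past -33% without that gap or agreement; tested in A549 cells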;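 also: scaled between vehicle wells and reference inhibitor wells; 23 nL library stock went into each well; one replicate is shown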
Vaccinia inh Venus – also measured in Vaccinia inh; calls as there; activity change (Venus), %; measured here: Venus reporter, other viral stage;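 negative = less Venus signal; first of two replicates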
Starred values were filed as active, the others as inactive; ? = inconclusive; · = no result given. A portion of the library; count on the stated rates, not on these rows.

Values run as follows: Vaccinia inh | Vaccinia inh Venus
CCS(=O)(=O)Nc1ccc2c(c1)C(=O)N(C)[C@@H]1CC[C@H](CC(=O)NC)O[C@@H]1CO2
    -7.6 | -3.2
CN1C(=O)c2cc(NC(=O)NC3CCCC3)ccc2OC[C@H]2O[C@H](CC(=O)NCC3CC3)CC[C@H]21
    -1.7 | 8.8
C[C@H]1CN([C@@H](C)CO)S(=O)(=O)c2ccc(C3=CCCCC3)cc2O[C@H]1CN(C)C(=O)CC1CC1
    ? | ·
O=C(C[C@H]1C=C[C@@H](NC(=O)c2ccccn2)[C@@H](CO)O1)NCc1cccc(F)c1
    1.7 | -5.2
CC(C)NC(=O)Nc1ccc2c(c1)C(=O)N([C@@H](C)CO)C[C@H](C)[C@H](CN(C)C)O2
    10.0 | -3.8
C[C@@H]1CN([C@H](C)CO)S(=O)(=O)c2ccc(C#CCC3CCCC3)cc2O[C@H]1CN(C)C
    ? | ·
COC(=O)[C@H]1[C@H](CO)[C@H]2Cn3c(ccc(-c4ccccc4)c3=O)[C@H]2N1C(=O)CC1CC1
    9.0 | 12.7
O=C(C[C@H]1CC[C@H]2[C@@H](COC[C@@H](O)CN2C(=O)Nc2ccc(Cl)cc2)O1)NCC1CC1
    -0.9 | 3.1
CCOC(=O)N(C)C[C@@H]1OCc2cnnn2CCCC(=O)N([C@H](C)CO)C[C@H]1C
    5.5 | 8.8
COc1ccc(C(=O)Nc2ccc3c(c2)C(=O)N(C)C[C@H](OC)[C@H](C)CN(C)[C@H](C)CO3)cc1
    12.4 | 6.8
COCC(=O)N1[C@H](CO)[C@H](c2ccccc2)C12CN(C(=O)NC1CCCC1)C2
    9.1 | 15.3
O=C(C1CC1)N1CC(=O)N2[C@H](CO)[C@H](c3ccc(-c4cccnc4)cc3)[C@H]2C1
    -2.8 | 1.0
C[C@H](CO)N1C[C@H](C)[C@H](CN(C)S(=O)(=O)c2ccc(Cl)cc2)OCCCC[C@H](C)Oc2ccc(NS(=O)(=O)c3ccccc3)cc2C1=O
    ? | ·
C[C@@H]1CN([C@H](C)CO)C(=O)c2cccc(NS(=O)(=O)c3ccc(Cl)cc3)c2O[C@@H]1CN(C)Cc1ccc(-c2ccccc2)cc1
    -25.9 | -17.7
C[C@@H]1CN([C@H](C)CO)C(=O)c2cc(NS(=O)(=O)c3cn(C)cn3)ccc2O[C@@H](C)CCCCO[C@H]1CN(C)C(=O)Nc1ccc(F)cc1
    20.4 | 11.8
COc1ccc(CN2[C@@H]3CN(C(=O)C4CC4)c4ccccc4[C@@H]3[C@@H]2CO)cc1
    7.9 | 4.9
C[C@@H]1CN([C@H](C)CO)C(=O)c2cc(C#Cc3ccccc3F)cnc2O[C@@H]1CN(C)C(=O)Cc1cccnc1
    -15.7 | -13.3
C[C@H](CO)N1C[C@H](C)[C@@H](CN(C)Cc2ccc(C(=O)Nc3ccccc3N)cc2)Oc2c(NS(=O)(=O)c3ccccc3)cccc2C1=O
    6.7 | 4.6
CC(C)CC#Cc1ccc2c(c1)O[C@H](CN(C)C(=O)Nc1ccccc1F)[C@@H](C)CN([C@@H](C)CO)S2(=O)=O
    ? | ·
CO[C@@H]1CN(C)C(=O)c2ccc(NC(=O)C3CCCC3)cc2OC[C@@H](C)N(Cc2ccc(F)cc2)C[C@H]1C
    -4.9 | -1.8
C[C@@H]1CN([C@H](C)CO)C(=O)c2cc(-c3cccc(F)c3)cnc2O[C@H]1CN(C)C(=O)Nc1cc(F)ccc1F
    -7.6 | -7.7
C[C@@H]1CN([C@@H](C)CO)C(=O)CCCn2nncc2CO[C@H]1CN(C)Cc1ccc(-c2ccccc2)cc1
    -29.3 | -38.9
C[C@@H](O)C#Cc1cnc2c(c1)C(=O)N([C@@H](C)CO)C[C@H](C)[C@H](CN(C)C(=O)Nc1ccc(C(F)(F)F)cc1)O2
    6.6 | -3.8
O=C(C[C@@H]1C[C@@H]2c3cc(NC(=O)C4CCOCC4)ccc3O[C@@H]2[C@H](CO)O1)NCCN1CCCCC1
    16.2 | 18.3
COc1cccc(-c2ccc(C3[C@H]4CNC[C@@H]3N4C(=O)Nc3ccc4c(c3)OCO4)cc2)c1 (stereo partly drawn)
    7.1 | 6.8
C[C@@H]1CN([C@H](C)CO)C(=O)Cc2cc(NC(=O)Nc3ccc(F)cc3)ccc2O[C@H]1CN(C)CC1CC1
    -3.3 | -2.6
CO[C@@H]1CC[C@@H]2CCOc3ccc(C#N)cc3C(=O)N(C)C[C@@H](OC)[C@H](C)C(=O)N(C)C[C@@H]1O2
    7.2 | 1.1
C/C=C/c1ccc2c(c1)[C@H]1[C@H](CCN1S(=O)(=O)c1cn(C)cn1)[C@H](CO)N2
    2.8 | 15.1
C[C@@H]1CN([C@H](C)CO)C(=O)c2cc(NC(=O)CCCN(C)C)ccc2O[C@@H](C)CCCCO[C@@H]1CN(C)C(=O)c1ccccc1
    22.0 | 18.5
O=C(C[C@@H]1C[C@@H]2c3cc(NC(=O)C4CCC4)ccc3O[C@@H]2[C@H](CO)O1)NCc1cc(F)ccc1F
    7.9 | 8.1

(continued)
Values run as follows: Vaccinia inh | Vaccinia inh Venus
Cc1ccc(S(=O)(=O)N2C[C@H](O)COC[C@H]3O[C@H](CC(=O)N[C@H]4CCN(Cc5ccccc5)C4)CC[C@@H]32)cc1
    -26.3 | -18.0
COc1ccc(CN(C)C[C@@H]2OCCCC[C@H](C)Oc3ccc(NC(=O)CCC(F)(F)F)cc3C(=O)N([C@@H](C)CO)C[C@H]2C)cc1
    ? | ·
C[C@@H]1CN([C@@H](C)CO)C(=O)Cc2cc(NC(=O)C3CC3)ccc2O[C@@H]1CN(C)S(=O)(=O)c1ccccc1
    5.7 | 5.2
CC(C)NC(=O)Nc1ccc2c(c1)C(=O)N([C@H](C)CO)C[C@H](C)[C@@H](CN(C)C(=O)Nc1ccc(F)cc1)O2
    5.8 | 3.3
COCC(=O)Nc1ccc2c(c1)[C@H]1C[C@H](CC(=O)N3CCOCC3)O[C@H](CO)[C@H]1O2
    6.0 | 17.3
O=C(c1ccncc1)N1C[C@H]2[C@@H](c3ccccc31)[C@@H](CO)N2Cc1ccccc1F
    -33.4 | -24.9
C/C=C/c1ccc2c(c1)O[C@@H](CN(C)C(=O)c1ccccc1F)[C@H](C)CN([C@H](C)CO)S2(=O)=O
    -8.0 | -9.6
CN(C)C(=O)c1cccc(-c2ccc([C@@H]3[C@@H](CO)N4C(=O)CN(C(=O)C5CC5)C[C@H]34)cc2)c1
    12.4 | 7.4
CC=Cc1ccc2n(c1=O)C[C@@H]1[C@@H](CO)[C@H](C(=O)NCCC)N(CC3CC3)[C@H]21 (mixture of isomers)
    7.1 | 0.1
C[C@@H]1CN([C@H](C)CO)S(=O)(=O)c2ccc(C#C[C@@H](C)O)cc2O[C@@H]1CN(C)C(=O)CC1CC1
    1.8 | -0.4
C=CC[C@H](O)c1ccc(O)c(F)c1
    17.4 | 2.6
C[C@H]1CN([C@@H](C)CO)C(=O)c2cc(NC(=O)NC3CCCCC3)ccc2O[C@@H]1CN(C)Cc1ccc2c(c1)OCO2
    10.8 | 3.4
C[C@@H]1CCCCO[C@H](CN(C)C(=O)NC2CCCCC2)[C@H](C)CN([C@@H](C)CO)C(=O)c2cc(NC(=O)c3ccncc3)ccc2O1
    13.3 | 1.3
COCCOC(=O)N1C(=O)[C@@]2(c3cc(C#CC4=CCCCC4)ccc31)[C@H](c1ccc(OCCO)cc1)N1[C@H](c3ccccc3)[C@H](c3ccccc3)OC(=O)[C@H]1[C@@H]2C(=O)N1CCc2cc(OC)c(OC)cc2C1
    -2.1 | 3.4
CN(C)CCCNC(=O)C[C@@H]1CC[C@@H](NS(=O)(=O)c2ccccc2)[C@@H](CO)O1
    16.6 | 17.4
CCCC(=O)Nc1ccc2c(c1)C(=O)N(C)C[C@@H](OC)[C@@H](C)CN(C)[C@H](C)CO2
    -3.7 | -7.0
CS(=O)(=O)N1CC2(C1)[C@@H](c1ccccc1)[C@@H](CO)N2CCC(F)(F)F
    22.4 | 16.8
O=C(NC1CCCCC1)N[C@H]1C=C[C@H](CC(=O)N2CCOCC2)O[C@H]1CO
    13.2 | 8.8
C[C@@H]1CN([C@H](C)CO)C(=O)Cc2cc(NS(=O)(=O)c3ccc(F)cc3)ccc2O[C@H]1CN(C)C(=O)Nc1cccc2ccccc12
    30.7 | 11.7
C[C@@H]1CN([C@@H](C)CO)C(=O)c2cc(-c3ccc(F)cc3)cnc2O[C@@H]1CN(C)C(=O)NC1CCCC1
    1.5 | 0.9
C[C@H](NC(=O)C[C@@H]1C=C[C@@H](NC(=O)CN2CCOCC2)[C@@H](CO)O1)c1ccccc1
    -1.0 | 7.8
COc1cccc(NC(=O)N[C@H]2C=C[C@@H](CC(=O)Nc3ccc(-c4ccccc4)cc3)O[C@H]2CO)c1
    -24.0 | -20.2
C/C=C/c1cnc2c(c1)C(=O)N([C@@H](C)CO)C[C@H](C)[C@@H](CN(C)S(=O)(=O)c1ccccc1)O2
    2.6 | -1.7
CCC(=O)N(C)C[C@H]1Oc2ncc(Br)cc2C(=O)N([C@H](C)CO)C[C@@H]1C
    12.8 | 8.4
Cc1ccc(S(=O)(=O)Nc2cccc3c2O[C@H](CN(C)Cc2ccc(Oc4ccccc4)cc2)[C@@H](C)CN([C@@H](C)CO)C3=O)cc1
    -17.1 | -11.3
Cc1ccc(S(=O)(=O)N2C[C@H](O)COC[C@@H]3O[C@H](CC(=O)NCCN4CCCCC4)CC[C@H]32)cc1
    -1.6 | -4.6
CC(C)NC(=O)Nc1ccc2c(c1)C(=O)N([C@H](C)CO)C[C@@H](C)[C@@H](CN(C)Cc1ccc(C(=O)O)cc1)OCCCC[C@@H](C)O2
    33.9 | 13.5
CN1CCN(C(=O)C[C@@H]2C[C@H]3c4cc(NC(=O)c5ccc6c(c5)OCO6)ccc4O[C@H]3[C@H](CO)O2)CC1
    -3.1 | 7.1
CC(C)(C)S(=O)N1Cc2cc(C(=O)NCc3ccc(Oc4ccccc4)cc3)nc(-c3cccc(-c4cccc(F)c4)c3)c2[C@@H]1CCO (stereo partly drawn)
    19.2 | 18.3
CC(C)NC(=O)N(C)C[C@H]1Oc2c(NC(=O)Nc3ccccc3)cccc2C(=O)N([C@@H](C)CO)C[C@H]1C
    -13.5 | -12.5

Complete entries from above.
Record of `Cc1ccc(S(=O)(=O)N2C[C@H](O)COC[C@H]3O[C@H](CC(=O)N[C@H]4CCN(Cc5ccccc5)C4)CC[C@@H]32)cc1` : Vaccinia inh: -26.3; Vaccinia inh Venus: -18.0
Record of `C[C@@H]1CN([C@@H](C)CO)C(=O)Cc2cc(NC(=O)C3CC3)ccc2O[C@@H]1CN(C)S(=O)(=O)c1ccccc1` : Vaccinia inh: 5.7; Vaccinia inh Venus: 5.2

(next part)
Values run as follows: Vaccinia inh | Vaccinia inh Venus
Cc1noc(C)c1NC(=O)N(C)C[C@H]1Oc2ncc(C#CC3CCCCC3)cc2C(=O)N([C@@H](C)CO)C[C@H]1C
    -30.7 | -37.1
CN(C)CC(=O)N1CC2(C1)[C@@H](c1ccccc1)[C@@H](CO)N2C(=O)C1CCCCC1
    4.3 | 3.7
CC(C)CC#Cc1ccc([C@H]2[C@H](CO)N3C(=O)CN(C(=O)Cc4cccnc4)C[C@@H]23)cc1
    -1.4 | -6.4
C[C@H](NC(=O)C[C@@H]1C[C@@H]2c3cc(NC(=O)NC4CCCCC4)ccc3O[C@@H]2[C@H](CO)O1)c1ccccc1
    10.4 | 8.2
CC(=O)NC[C@@H]1[C@@H](c2ccccc2)[C@@H](CO)N1C(=O)Cc1cccnc1
    14.1 | 14.2
CC=Cc1ccc2n(c1=O)C[C@@H]1[C@@H](CO)[C@H](C(=O)NCc3ccccc3)N(S(C)(=O)=O)[C@H]21 (mixture of isomers)
    12.6 | 3.6
CCCC#Cc1ccc([C@H]2[C@@H](C#N)N(S(C)(=O)=O)[C@H]2CO)cc1
    3.7 | 0.9
COC(=O)C[C@@H]1CC[C@H]2[C@@H](COc3ccc(NC(=O)c4cscn4)cc3C(=O)N2C)O1
    3.7 | -2.2
COCCNC(=O)C[C@H]1C=C[C@@H](NC(=O)NC2CCCCC2)[C@@H](CO)O1
    -6.9 | 11.2
C[C@@H]1CN([C@H](C)CO)C(=O)Cc2cc(NC(=O)CCC(F)(F)F)ccc2O[C@@H]1CN(C)S(=O)(=O)c1ccccc1
    4.9 | 8.9
COc1ccc(NC(=O)N(C)C[C@H]2Oc3ccc(NS(=O)(=O)c4ccc(Cl)cc4)cc3CC(=O)N([C@H](C)CO)C[C@H]2C)cc1
    15.5 | 10.6
CCCC#Cc1cnc2c(c1)C(=O)N([C@H](C)CO)C[C@@H](C)[C@@H](CN(C)S(=O)(=O)c1cn(C)cn1)O2
    -1.8 | 0.3
CO[C@@H]1CN(C)C(=O)c2ccc(NC(=O)C3CC3)cc2OC[C@@H](C)N(Cc2ccccc2C(=O)O)C[C@H]1C
    7.4 | 1.5
COc1ccc2c3c([nH]c2c1)[C@@H](CO)N(C(=O)Nc1ccc(F)cc1)CC31CN(S(=O)(=O)c2cccc(C)c2)C1
    -21.5 | -20.0
C[C@@H]1CN([C@H](C)CO)C(=O)CCCn2nncc2CO[C@@H]1CN(C)Cc1cccc(O)c1
    15.8 | 15.0
CO[C@@H]1CN(C)C(=O)c2ccc(NC(=O)C3CC3)cc2OC[C@H](C)N(C(=O)CN(C)C)C[C@@H]1C
    9.2 | 10.7
COCCNC(=O)[C@@H]1[C@@H](CO)[C@@H]2Cn3c(ccc(-c4cccc(F)c4)c3=O)[C@H]1N2C(=O)NC(C)C
    16.8 | 9.5
COc1ccc(S(=O)(=O)Nc2ccc3c(c2)C(=O)N([C@H](C)CO)C[C@@H](C)[C@@H](CN(C)Cc2ccc(C(=O)Nc4ccccc4N)cc2)O3)cc1
    -4.1 | -5.4
